Source: PubChem
PrP 5UTR inh – suppresses PrP 5' UTR mRNA reporter expression. 340,000 compounds, 0.35% hits. cell-based PrP 5' UTR mRNA reporter, plate reader. AID 488862. inhibition, % (no concentration beside the values);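 active = every replicate at 50% or more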;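 note: 0 = median of the neutral control wells; tested in H4 reporter cells; numbers are from one replicate; inactives centre near -14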
BJeLR viability – BJeLR cell viability loss; BJeLR (HRASV12) viability, CellTiter-Glo ATP luminescence, 48 h; reference of the scale not given here; inhibition, % (test concentration not listed); 300,000 compounds, 0.17% hits; AID 1554;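 active = replicate mean above 50%; inconclusive = above 50% but judged a plate artefact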;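 note: 50 nL library stock added to about 25 µL; numbers are from one replicate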
Mtb hypoxia rep – reduces hypoxia-regulated biosensor signal in M. tuberculosis | M. tuberculosis hypoxia-regulated fluorescent reporter, fluorescence | fluorescence inhibition, % (test concentration not listed) | 300,000 compounds, 0.1% hits;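 active = 35 to 45% if threefold the growth effect, above 45% if 1.5-fold the growth effect; inactive = the rest, general growth blockers included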;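 note: wells of about 50 µL received 100 nL stock; 0% = vehicle wells and 100% = reference inhibitor wells; whole bacteria with a GFP reporter of the hypoxia response; strong numbers were not always called active; many hits fall short of the cut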
RN4220 kill – kills Staphylococcus aureus RN4220 | S. aureus RN4220 growth, OD600, 16 h | 330,000 compounds, 0.33% hits | inhibition, % (no concentration beside the values);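 active = z-score of -3 or lower and OD600 up to 0.18 on both plates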;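 note: plate controls were untreated cells for no effect and reference antibiotic for full effect; stock transfer was 100 nL into about 80 µL; one replicate is shown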
ugtP null kill – compounds lethal to S. aureus RN4220 ugtP deletion mutant. OD600 growth, 16 h; some inactives read as strong as hits. growth inhibition, % (test concentration not listed). 330,000 compounds, 0.54% hits. AID 1259309;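 active = z-score under -3 and OD600 up to 0.15 on both plates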;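 note: plate controls were untreated wells for no effect and antibiotic for full effect; wells of about 80 µL received 100 nL stock; the first replicate is given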
Autofluor counter – counter-screen for toxin protease inhibitors: compound fluorescence. compound autofluorescence counterscreen, microsphere flow cytometry; active compounds read high. fluorescence intensity (no concentration beside the values). 360,000 compounds, 3.1% hits. AID 624483;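 active = at least 3 SD above the mean of all compounds, about 16000 in these data; inconclusive = too few beads counted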;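 note: 100 nL of 1 mM stock went into each well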
Mtb hypoxia rep growth – also measured in Mtb hypoxia rep; calls as there; growth inhibition, %; measured here: M. tuberculosis growth (absorbance);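 0% = vehicle and 100% = reference antibiotic; read after six days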
Starred values were filed as active, the others as inactive; ? = inconclusive; . = not tested or not shown.

SMILES	PrP 5UTR inh	BJeLR viability	Mtb hypoxia rep	Mtb hypoxia rep growth	RN4220 kill	ugtP null kill	Autofluor counter
CN(C)C(CNC(=O)CSc1nc2sc3c(c2c(=O)n1C)CCCC3)c1ccccc1 (stereo not drawn)	-2	.	-7	-8	1.5	-5	3354
COc1ccc(N2CCN(C(=O)CCSCc3ccccc3F)CC2)cc1	-10	-7	-3	4	5.2	8	4216
O=C(NCC1CC1)[C@]1(C(F)(F)F)C[C@H](CCC2CCCCC2)CCCO1	-5	1	16	5	-8.8	11	3360
CCCn1c(N2CCN(C)CC2)nc2c1c(=O)[nH]c(=O)n2C	0	5	.	.	3.5	7	3195
O=C(Nc1ccccc1F)c1cc2nc(C(F)F)cc(C(F)F)n2n1	-66	6	-1	11	6.5	-11	21540*
Cc1nn2c(NCCOCCO)c3c(nc2c1-c1ccccc1)CCCC3	-17	-4	1	8	0.9	2	9642
O=C(CC1C[C@H](C(=O)N2CCOCC2)[C@@]2(CCC3CCCC3)c3[nH]c4ccccc4c3CCN2C1=O)NCCc1ccccn1 (stereo partly drawn)	-6	.	-7	-2	2.6	1	3780
O=C1COc2cc(S(=O)(=O)CCC(=O)N3CCCCC3)c(Cl)cc2N1	-19	5	8	9	-7.4	-3	4898
Cc1nc(NCCc2ccc(O)cc2)c2nnn(Cc3ccccc3)c2n1	-10	-5	.	.	.	.	3917
CC(CC(=O)c1cccs1)CC(=O)c1cccs1	-71	3	24	18	7.5	8	6674
Nc1nnnn1CC(=O)NN=Cc1cccs1	.	.	-5	-5	-2.3	-6	.
Nc1nnc(SCc2ccccc2F)n1-c1ccccc1	-3	-5	10	8	3.3	5	3814
Cc1nn(-c2ccccc2)c(Cl)c1C(=O)NCC(C)C	-16	3	.	.	1.0	-3	2746
CCOC(=O)CSc1nnc(CNC(=O)c2ccc(OC)cc2OC)n1-c1ccc(OC)cc1	-34	.	9	6	4.9	-1	21152*
O=C(O)c1ccccc1SSc1ccccc1C(=O)O	-22	-15	-2	6	6.9	10	3603
O=C(Nc1ncccc1Cl)c1cccc(F)c1	-34	-3	5	4	4.8	6	11488
CN(c1cccc(NC(=O)CN2C(=O)c3ccccc3S2(=O)=O)c1)S(C)(=O)=O	-8	0	.	.	0.6	7	4765
CN1C(=CC(=O)Nc2cccnc2)c2ccccc2CC1(C)C	.	.	2	5	9.7	9	.
CCC(CC)NC(=O)Cc1ccccc1OC	-16	-6	.	.	0.7	13	2785
N#Cc1c(NC(=S)NC(=O)C2CCCC2)sc2c1CCCCC2	-42	3	.	.	.	.	2473
CC(NC(=O)CN(c1ccccc1F)S(C)(=O)=O)c1ccccc1 (stereo not drawn)	-27	-8	1	1	1.0	3	3845
Cc1c(C)c(C)c(CON=Cc2cccs2)c(C)c1C	.	.	1	-1	1.9	4	.
COc1ccc(CN(C(=O)c2ccc(C)cc2)C2CCS(=O)(=O)C2)cc1 (stereo not drawn)	-14	11	2	0	1.5	3	5696
O=C(CO/N=C1\CCCc2nonc21)Nc1ccc(Br)cc1	-23	7	.	.	.	.	2437

4 entries from above in another layout.
Order of results: PrP 5UTR inh | BJeLR viability | Mtb hypoxia rep | Mtb hypoxia rep growth | RN4220 kill | ugtP null kill | Autofluor counter
CCC(CC)NC(=O)Cc1ccccc1OC
    -16 | -6 | . | . | 0.7 | 13 | 2785
N#Cc1c(NC(=S)NC(=O)C2CCCC2)sc2c1CCCCC2
    -42 | 3 | . | . | . | . | 2473
CC(NC(=O)CN(c1ccccc1F)S(C)(=O)=O)c1ccccc1 (stereo not drawn)
    -27 | -8 | 1 | 1 | 1.0 | 3 | 3845
Cc1c(C)c(C)c(CON=Cc2cccs2)c(C)c1C
    . | . | 1 | -1 | 1.9 | 4 | .

(cont.)
SMILES	PrP 5UTR inh	BJeLR viability	Mtb hypoxia rep	Mtb hypoxia rep growth	RN4220 kill	ugtP null kill	Autofluor counter
C/C(=N\N=C(c1ccccc1)c1ccccc1)c1ccco1	0	1	.	.	.	.	3398
COc1ccc(OC)c2[nH]c(=O)c(CCNS(=O)(=O)c3ccc(F)cc3)cc12	5	-3	3	5	5.7	4	3358
CCOc1ccccc1N1CCN(CC(O)COc2ccc3c(C)cc(=O)oc3c2)CC1 (stereo not drawn)	-6	3	2	18	-2.2	-2	5251
CC1CCN(CCCNC(=O)C2CCC(CNS(=O)(=O)c3ccccc3)CC2)CC1 (stereo not drawn)	-2	-11	1	2	2.6	0	6737
Cc1ccccc1SC1CCN(C(=O)C2CCC(=O)N(C3CC3)C2)CC1 (stereo not drawn)	-17	7	16	10	6.0	-3	5643
Cc1ccc(NC(=O)CCn2cnc3ccccc3c2=O)cc1Cl	-5	-4	9	4	5.7	2	2551
COc1ccccc1C(=O)NC(=O)COC(=O)CNC(=O)c1ccccc1	-3	-4	-5	2	0.8	8	5337
CCCc1cc(C(=O)OCC(=O)N(CCC)c2c(N)n(Cc3ccccc3)c(=O)[nH]c2=O)sc1C	0	3	8	8	-2.9	-2	5423
Cc1c(NC(=O)c2ccc(Cl)c([N+](=O)[O-])c2)cccc1-n1cnnn1	-15	.	17	6	2.8	0	3708
Cc1ccc(NC(=O)COC(=O)COc2cccc3c2OC(C)(C)C3)cc1C	3	-4	-8	10	2.4	-3	6183
N/C(=N/O)c1cccn1Cc1ccccc1[N+](=O)[O-]	-6	4	.	.	.	.	4674
CSc1ccccc1NC(=O)CO/N=C(\C)c1cc2ccccc2o1	1	3	.	.	.	.	2040
Cn1cccc1Cc1nnc(SCC(=O)NCCc2ccccc2)n1-c1ccc(F)cc1	-17	0	.	.	3.2	11	5312
CCN(CC(=O)Nc1c(F)cccc1F)C(=O)c1cc2ccccc2oc1=O	-16	-5	3	14	1.4	3	5668
Cc1cccc(CC(=O)Nc2cc(C)c3c(=O)oc4ccccc4c3n2)c1	1	7	5	7	0.8	3	4098
O=C(O)/C=C/c1cn(Cc2ccccc2Cl)nc1-c1ccccc1	1	0	9	14	5.8	5	4391
O=C(CNCCc1ccccc1)Nc1ccc(C(=O)N2CCCCC2)cc1	-3	2	1	2	1.3	-2	5626
CCCCC1=CC2=CC(=O)C(C)(OC(=O)CC)C(=O)C2=CN1Cc1ccco1 (stereo not drawn)	-13	-5	8	1	6.1	0	4044
COc1ccc(/C=N/Nc2ncnc3sc4c(c23)CCCC4)cc1O	-45	2	.	.	.	.	1982
Fc1ccc(-c2csc(Nc3ccccn3)n2)cc1	-84	8	-5	3	-8.4	-11	3961
Cc1nc(N2CCN(c3ccccc3)CC2)[nH]c(=O)c1Cc1ccccc1	-11	6	8	4	-2.9	-13	9836
CCOC(=O)c1cnc(-n2cc(C)cn2)nc1Nc1ccccc1OC	-31	7	1	4	8.2	-8	9895
COc1ccccc1N1CCN(/N=C/c2ccc(C(=O)O)cc2)CC1	-10	-1	.	.	.	.	3935
COC(=O)C1=C(c2ccc(OC(F)(F)F)cc2)CC2CCC1N2C(=O)NCC1CC1 (stereo not drawn)	.	.	-1	7	-1.1	-4	.
O=C(COC(=O)c1cc(Br)ccc1O)Nc1ccc2c(c1)OCCO2	-14	-1	6	8	0.7	-13	3915
O=C(/C=C/c1ccc(O)c(O)c1)NC(=O)c1ccccc1O	-28	13	.	.	3.6	-1	4830
CCOC(=O)c1c(NC(=O)c2cc(-c3ccc(O)cc3)on2)sc(C(C)=O)c1C	-53	3	11	2	0.3	6	4239
COc1ccc(S(=O)(=O)N2CCOCC2)cc1NC(=O)Cc1sc(C)nc1-c1ccc(F)cc1	-2	9	.	.	.	.	5228
COc1ccc(/C=C/C(=O)N2CCN(S(=O)(=O)c3ccccc3Br)CC2)cc1OC	5	.	-3	5	3.2	-4	3949
Cc1ccc(Cn2nnnc2CN2CCC(n3nnc4cc(C)ccc43)CC2)cc1	-9	-13	7	8	7.9	-2	5273
Cc1nnc(N(Cc2ccccc2)C(=O)c2cnccn2)s1	-6	3	.	.	3.6	13	8306
CN1CCN(C(=O)C2=C[C@@H](c3ccccc3)C[C@@H](OCCCCO)O2)CC1	-16	-1	.	.	.	.	2788
CCN(C(=O)Cn1nc(C)c([N+](=O)[O-])c1C)C1CCS(=O)(=O)C1 (stereo not drawn)	-1	15	10	9	2.4	8	5074
O=C1NC(=Nc2ccccc2)S/C1=C/c1cccs1	-74	1	.	.	.	.	2222
O=C(NCCCc1ccccc1)C(=O)NCC1OCCN1S(=O)(=O)c1ccc(F)cc1 (stereo not drawn)	-10	7	-8	-7	-1.0	-5	6986
CCOc1ccc2nc(NCCCO)[nH]c2c1	-12	8	8	-4	1.4	8	9481
O=C(OCc1nc2scc(-c3ccccc3)c2c(=O)[nH]1)c1ccco1	-16	1	9	11	3.3	0	?
CC(C)(Oc1ccc(Cl)cc1)C(=O)N1CCC(C(N)=O)CC1	-22	6	13	3	7.3	3	3296
Cc1ccc2cc(C)c(SCC(=O)NCc3ccco3)nc2c1	-16	5	8	-2	2.3	0	5010
CN(CCc1ccccc1)C(=O)c1ccc(NC(=O)Cc2ccc(NC(=O)C3CCCN(C(=O)CCc4ccccc4)C3)cc2)cc1 (stereo not drawn)	-13	.	-13	7	-0.1	-14	3893
Cc1ccc2c(c1)nnn2C1CCN(CC(=O)N(c2ccccc2)c2ccccc2)CC1	-16	5	.	.	.	.	4364
N/C(CN1CCSCC1)=N\OCc1c(F)cccc1Cl	-30	-5	9	5	3.7	7	3221
CCOc1ccc(N2CC(C(=O)NCCc3ccccc3)CC2=O)cc1 (stereo not drawn)	-14	0	7	-1	3.6	7	4535
COc1ccc(OC)c(C2C(C#N)=C(N)Oc3cc(N)ccc32)c1 (stereo not drawn)	-28	-10	12	7	7.1	-6	6142
CCn1c(=O)c(C(=O)NCc2ccccc2)c(O)c2ccccc21	-8	9	-6	-3	1.1	8	3293
COc1ccc(C2C(C(=O)Nc3cc(C)on3)c3ccccc3C(=O)N2C)cc1OC (stereo not drawn)	-10	.	-5	-10	1.1	-5	4029
CN(N=Nc1ccc([N+](=O)[O-])cc1)c1ccccc1	-63	-1	.	.	.	.	2596
COc1c(Br)cc(Br)cc1C=NNC(=O)c1ccncc1	.	.	12	15	-5.4	16	.
Cc1cc(C)n(-c2nnc(C)n2/N=C/c2ccco2)n1	-4	-8	.	.	.	.	7265
O=C(COC(=O)c1cccs1)Nc1cccc(S(=O)(=O)NC2=NCCCCC2)c1	-21	1	4	5	-0.1	9	6466
O=C(c1ccccc1-c1ccccc1)N1CCCCC1	-24	3	0	7	6.5	5	4350
Cc1cc(NC(=O)COC(=O)CCS(=O)(=O)c2ccc(Cl)cc2)no1	-12	16	2	-2	1.7	4	3542
Oc1ccc(C=NC2CCCCC2)c(O)c1	-32	-8	-1	5	4.3	6	4284
CN(C)c1ccc(/C=C(\Cl)c2nc3ccccc3s2)cc1	40	.	5	2	-6.2	14	9523
CCOC(=O)C1(CCc2ccccc2)CCN(C(=O)c2cc(C)nc(C)n2)CC1	-41	-8	4	-2	4.3	2	4705
Cc1ccc(CNS(=O)(=O)N(C)C)cc1	-18	-8	4	5	0.9	-5	4210
Cc1cc2nc(CCN3CCOCC3)n(S(=O)(=O)c3ccc(C(C)(C)C)cc3)c2cc1C	-15	8	11	-2	8.2	8	9506
O=C1COc2ccc(C(=O)COC(=O)c3ccc([N+](=O)[O-])cc3Cl)cc2N1	-19	.	7	14	-3.9	7	5840
NC(=O)CCN(Cc1ccccc1)S(=O)(=O)c1ccccc1	-14	0	0	9	5.7	1	9060
COc1ccccc1OCc1ccc(C(=O)N2CCN(C(=O)c3ccco3)CC2)cc1	-5	-10	4	19	-5.9	-7	?
Next entries follow:
SMILES	PrP 5UTR inh	BJeLR viability	Mtb hypoxia rep	Mtb hypoxia rep growth	RN4220 kill	ugtP null kill	Autofluor counter
Cc1c(C(=O)NCCc2ccccc2)oc2ccc(S(=O)(=O)N3CCOCC3)cc12	-9	-15	3	14	4.7	-2	4524
Cc1cc(Cl)ccc1C(=O)C1CCCN(C(=O)c2cc(C(C)C)no2)C1 (stereo not drawn)	-17	5	7	16	12	4	3323
O=C(COC(=O)COc1ccccc1F)Nc1ccc2c(c1)OCO2	-10	.	-7	-6	-4.1	-3	3598
CCCCNC(=O)C1CC(=O)N(c2ccc(OC)cc2)C1c1ccc(OC)cc1 (stereo not drawn)	-17	-4	22	2	-0.3	1	2945
CCCCn1c(N)c(N(C)C(=O)C2CC(=O)N(Cc3ccco3)C2)c(=O)[nH]c1=O (stereo not drawn)	-5	.	-27	5	1.8	-3	4066
